GLA inh pH 4.5: inhibitors of human alpha-galactosidase A at pH 4.5. 230,000 tested, under 10 active. P06280. activity change, negative = inhibition, % at 105 µM. purified enzyme, 4-MU-alpha-Gal fluorescence, pH 4.5; inconclusive = small, poorly fitted or top-dose-only inhibition, or a rising curve; inactive = flat fitted curve, though single readings scatter; no compound was filed as active;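 note: 0% = full activity with enzyme and -100% = basal without enzyme; dose as in the result columns while the protocol names 77 µM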
Rango complex inh: inhibitors of Rango-importin beta complex formation; Q14974; Rango CFP/YFP FRET sensor + importin beta, 45 min; Potency, µM (titrated, usually from 92.2 µM), for the others: at the top dose inhibition of complex formation; hit rate 0.031% among 340,000; AID 540263; active = rising FRET ratio curve, often small or poorly fitted; inconclusive = mostly compound fluorescence or quenching in the first reads; inactive = flat curves in all reads;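 note: potency is the fitted concentration of half-maximal effect; 0% = DMSO wells and 100% = buffer wells lacking importin beta; nearly all actives have a fitted effect of over 15% in size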
Target sequence (Q14974 whole entry, looked up): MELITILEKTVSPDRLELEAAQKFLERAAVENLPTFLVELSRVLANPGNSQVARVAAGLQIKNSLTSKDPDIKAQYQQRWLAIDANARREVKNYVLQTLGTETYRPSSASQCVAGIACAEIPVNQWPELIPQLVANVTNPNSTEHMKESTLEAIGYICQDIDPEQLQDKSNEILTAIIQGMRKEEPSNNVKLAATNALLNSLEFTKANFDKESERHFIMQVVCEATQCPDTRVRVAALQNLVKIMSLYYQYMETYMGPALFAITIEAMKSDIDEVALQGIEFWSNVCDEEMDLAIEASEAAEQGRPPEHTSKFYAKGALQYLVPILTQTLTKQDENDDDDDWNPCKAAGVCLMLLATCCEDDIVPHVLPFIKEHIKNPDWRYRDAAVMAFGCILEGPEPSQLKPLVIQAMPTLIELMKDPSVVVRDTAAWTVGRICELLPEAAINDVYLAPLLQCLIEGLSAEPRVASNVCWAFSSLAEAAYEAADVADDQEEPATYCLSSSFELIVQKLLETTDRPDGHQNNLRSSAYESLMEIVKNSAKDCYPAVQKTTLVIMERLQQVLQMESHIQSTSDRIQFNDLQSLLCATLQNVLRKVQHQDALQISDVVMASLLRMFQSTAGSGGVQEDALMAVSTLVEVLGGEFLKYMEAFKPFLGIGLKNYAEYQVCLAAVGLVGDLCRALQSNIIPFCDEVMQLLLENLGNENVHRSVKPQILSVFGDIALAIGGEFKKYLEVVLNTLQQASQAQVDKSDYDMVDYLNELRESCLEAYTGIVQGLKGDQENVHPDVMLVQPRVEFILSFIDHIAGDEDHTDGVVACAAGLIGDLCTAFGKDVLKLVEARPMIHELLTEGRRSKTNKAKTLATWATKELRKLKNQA
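FRET biosensor (snurportin 1 IBB flanked by EYFP and cerulean), 50 nM, with compound 5 min, then 0.125 microM importin beta in PBS, 1 mM DTT, 0.02% Tween-20, 0.1% BSA. CFP/YFP ratio read after 45 min at room temperature; pre-read flags interference.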
Rango release inh: prevents RanGTP from dissociating the Rango-importin beta complex | Biochemical FRET Rango-importin beta, RanGTP-induced dissociation | Potency, µM (titrated, usually from 46.1 µM), for the others: top-dose activity change, negative = inhibition | hit rate 0.071% among 340,000 | O95149+P62826; active means falling FRET ratio curve, often poorly fitted, with flat reads before Ran was added; inconclusive means other falling curves, or compound fluorescence or quenching; inactive means flat or rising ratio curve;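 note: potency is the fitted concentration of half-maximal effect; % of control where 0% means no effect; nearly all actives have a fitted effect of over 45% in size; -100% = wells without RanGTP and RCC1; the record marks most hits as doubtful in a second field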
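Rango/importin beta premix (0.1/0.25 uM final), PBS + 1 mM DTT + 0.02% Tween-20 + 0.1% BSA; cpd 5 min RT; FRET pre-read; + RanGTP-RCC1 (0.6 uM Ran, 2 mM GTP, 0.2 uM RCC1); 45 min RT; FRET post-read, ex 430, em 486/530 nm.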
miR-21 FLuc: raises the signal of a miR-21 reporter | HeLa miR-21 FLuc reporter, luciferase, 48 h | Potency, µM (highest dose often 38.3 µM), without a hit: at the top dose reporter change, positive = more light | 340,000 tested, under 10 active; active = well fitted rising curve with a large enough effect; inconclusive = small, poorly fitted or top-dose-only effect; inactive = no such curve, though single readings can be large or run the other way;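 note: % of control where 0% means no effect; miR-21 action dims this reporter so a rising signal means less miR-21 action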
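Compounds were titrated across several concentrations (up to approximately 40 uM) and incubated 48 hours with HeLa miR-21-FLuc reporter cells (miR-21 target sequence downstream of FLuc, endogenous miR-21). Readout was firefly luciferase luminescence after lytic detection reagent.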
* hit, by the source's call; ? = inconclusive; . = not tested or not shown; & = joins results of further samples; [ ] = another dose, or the depositor's remark.

SMILES	GLA inh pH 4.5	Rango complex inh	Rango release inh	miR-21 FLuc
O=C(COC(=O)CCc1nc2ccccc2c(=O)[nH]1)Nc1ccccc1OC(F)F	.	0.3%	-22%	.
O=C(Nc1ccc(-c2cn3ccsc3n2)cc1)C1CCCC1	-2	5.6%	-12%	-9%
Cc1ccc2c(C(=O)CN3CCCCC3)c(C)[nH]c2c1	.	-1.7%	-11%	1%
CC(=O)Nc1ccc(-c2csc(NCc3ccccc3)n2)cc1	-18	-4.3%	?	-43%
CN(Cc1cn(-c2ccccc2)nc1-c1ccc(F)cc1)C(=O)CCC(=O)O	-5	-1.7%	-3%	-18%
CCOc1ccccc1NC(=O)c1c(Br)cnn1C	0	2.3%	4%	-23%
CSCCC(NC(=O)COc1ccccc1)C(=O)N1CCC(C(N)=O)CC1 (stereo unspecified)	.	9.7%	5%	.
CC1CCN(S(=O)(=O)c2cccc(C(=O)N(Cc3ccccc3)c3ccccn3)c2)CC1	1	-1.7%	-4%	4%
O=C(O)CC1c2ccccc2S(=O)(=O)N1Cc1ccccc1 (stereo unspecified)	1	-2.1%	5%	11%
Cc1nn2c(N3CCN(C4CCCC4)CC3)cc(C(C)(C)C)nc2c1-c1ccccc1	11	-6.2%	10%	-6%
O=C(CCS(=O)(=O)c1cccc2nonc12)NCCc1ccccc1Cl	-4	1.6%	-4%	-6%
CN(C(=O)COc1ccc(Br)cc1Cl)C1CCCCC1	2	-1.2%	12%	-35%
CSc1nc(N2CCN(Cc3ccc4c(c3)OCO4)CC2)c2ccccc2n1	.	2.6%	5%	-7%
O=[N+]([O-])c1ccc(NN=CCCc2ccccc2)nc1	.	2.5%	-15%	.
CCCCCCC(=O)N(O)C1CC(=O)N(c2ccccc2)C1=O (stereo unspecified)	1	.	.	14%
Cc1cccc(CC2S/C(=N/N=C/c3ccco3)N(c3ccccc3)C2=O)c1 (stereo unspecified)	-7	3.0%	-9%	-4%
CCC(CC)c1nnc(NC(=O)c2ccc3c(c2)OCO3)s1	.	-0.5%	-20%	-67%
O=C(Nc1ncc(Cc2cccc(Cl)c2)s1)c1cccs1	4	-0.6%	-6%	-15%
N=c1nc(-c2ccccc2)ccn1O	-4	-0.2%	20%	2%
COc1ccc(S(=O)(=O)CCC(=O)NCCc2ccc(Cl)cc2)cc1	-4	-3.9%	-7%	-3%

2 of these compounds, set out differently:
GLA inh pH 4.5,Rango complex inh,Rango release inh,miR-21 FLuc,compound
1,-1.7%,-4%,4%,CC1CCN(S(=O)(=O)c2cccc(C(=O)N(Cc3ccccc3)c3ccccn3)c2)CC1
1,-2.1%,5%,11%,O=C(O)CC1c2ccccc2S(=O)(=O)N1Cc1ccccc1 (stereo unspecified)

Following part
SMILES	GLA inh pH 4.5	Rango complex inh	Rango release inh	miR-21 FLuc
O=S(=O)(/N=C(/Nc1ccc(Cl)c(S(=O)(=O)Nc2ccccc2Cl)c1)c1ccc(F)cc1)c1ccccc1	2	0.2%&3.5%	11%&-5%	-5%
CN(C(=O)COC(=O)c1cc(-c2ccc(Cl)s2)nc2ccccc12)C1CCS(=O)(=O)C1 (stereo unspecified)	4	-6.8%	-22%	2%
CC(NC(=O)c1ccc(C(C)(C)C)cc1)C(c1cccs1)N1CCOCC1 (stereo unspecified)	.	1.0%	-3%	0%
COc1ccc(-n2c(SCC(=O)N3CCN(c4ccccc4)CC3)nc3c(c2=O)SCC3)cc1	-7	-1.7%	12%	-6%
Fc1ccc(Cn2cccc2C2=NC(c3ccccc3)CO2)cc1 (stereo unspecified)	1	-2.2%	-23%	-37%
Cc1ccccc1Nc1c([N+](=O)[O-])ccc2c1=NC1(CCCCC1)N=2	-2	3.3%	-1%	-3%
O=C(Nc1ccc(Br)cc1)C1CCCN(C2=NS(=O)(=O)c3ccccc32)C1 (stereo unspecified)	.	1.0%	15%	.
O=C(NCc1ccc2c(c1)OCO2)C1CC(c2ccc(Cl)c(Cl)c2)=NO1 (stereo unspecified)	5	-1.5%	0%	-1%
COc1ccc(C(=O)/C=C/NCc2ccc(F)cc2)cc1OC	-11	-0.1%	-6%	-15%
CCCc1cc(=O)[nH]c(SCC(=O)NCCC2=CCCCC2)n1	-11	-0.5%	16%	-3%
Cc1nnc(SCC(=O)NC2CCCCC2)s1	2[21.1 µM]	-0.1%	8%	-1%
O=C(Nc1cnn(Cc2ccc(F)cc2)c1)c1cnn2c(C(F)F)cc(-c3ccccc3)nc12	-7	0.4%	44%	1%
COCCN(C(=O)c1cc2c(s1)CCCCC2)c1c(N)n(CC(C)C)c(=O)[nH]c1=O	.	-1.8%	1%	.
CCCCc1nnc(NC(=O)Cc2ccc(S(=O)(=O)N3CCOCC3)s2)s1	.	?	-8%	.
CCCCC1(Br)C(=O)N(c2ccccc2)N(c2ccccc2)C1=O	.	-5.0%	12%	.
COCCCN1C(=O)C(=O)/C(=C(/O)c2ccc(S(=O)(=O)N3CCCCC3)cc2)C1c1ccc(F)cc1 (stereo unspecified)	.	0.8%	4%	0%
CCOC(=O)c1oc2cccc(O)c2c1C	2	0.0%	0%	-47%
O=C(NCCN1CCOCC1)C1CC(=O)N(c2ccc(F)c(Cl)c2)C1 (stereo unspecified)	3	?	2%	-3%
C#CCOCCOCCOCCNc1nc(N2CCN(C(=O)Cn3cc(CCO)nn3)CC2)nc(N2CCN(C(=O)[C@H]([C@@H](C)O)n3cc(CCCCN)nn3)CC2)n1	9	?	5%	-12%
Cc1cc(C)nc(-n2ncc3c2CCCC3=O)n1	-1	-0.2%	11%	-1%
Cc1ccccc1NC(=O)CCC(=O)N/N=C/c1ccncc1	1	0.9%	-8%	1%
CC(C)(C)OC(=O)C[C@H]1C/C=C\C[C@@H](CC(=O)N[C@H](CO)Cc2ccccc2)C(=O)N2CCC[C@H]2COC1=O	.	-1.8%	-3%	.
COc1ccc(/C=C2\N=C3CCCCCN3C2=O)cc1	-1	4.5%	-7%	-60%
C/C(=N\NC(=O)CNc1cccc2ccccc12)c1ccccc1	3	6.2%	20%	-3%
COc1ccc(-c2c(C(F)(F)F)nn(C)c2NC(=O)c2ccco2)cc1	-7	-1.3%	1%	0%
O=C(COC(=O)c1ccc[nH]c1=O)NC1CCCCCCC1	-6	-2.9%	-14%	3%
CCCc1nnc(NC(=O)Cn2cnc3ccccc3c2=O)s1	2	-4.0%	-12%	1%
COc1ccc2c(C=O)c[nH]c2c1	10	-3.9%	-8%	0%
Cc1ccc(NC(=O)C2=C(O)c3sccc3N(C)S2(=O)=O)cc1	-3	?	-9%	-20%
Nc1ncc2c(n1)CC(c1ccco1)CC2=O (stereo unspecified)	-8	-4.7%	15%	-2%
COc1ccc(CNC(=O)CNC(=O)[C@@H]2Cc3ccccc3CN2)cc1	.	1.3%	2%	2%
COc1ccc2cc(C(=O)N/N=C/c3sc4ccccc4c3O)ccc2c1	-17	?	?	-9%
CCOc1ccc(-c2nnn(CC(=O)N3CCCC(C)C3)n2)cc1 (stereo unspecified)	5	2.7%	-1%	-16%
Cc1nc(N2CCc3ccccc3C2)[nH]c(=O)c1Cc1ccccc1	4	0.4%	20%	-1%
COc1cccc(-c2nc(-c3cccs3)no2)c1	-5	7.3%	12%	-30%
CCOc1ccc(N2Cc3ccccc3C2)cc1	1	-3.3%	6%	-54%
O=C(c1ccc(-c2nc3ccccc3s2)o1)N1CCN(c2ccccc2O)CC1	.	-0.5%	-7%	-16%
C=CCn1cnc2c(NCc3ccccc3)ncnc21	2	2.8%	4%	-44%
Cc1ccc(C(=O)N2CCN(c3ncccn3)CC2)o1	-8	-0.9%	33%	-5%
Cc1ccc(C(c2nnnn2C(C)(C)C)N2CCN(C3CCCC3)CC2)cc1 (stereo unspecified)	-15	-0.5%	9%	-9%

2 successive entries from above:
SMILES	GLA inh pH 4.5	Rango complex inh	Rango release inh	miR-21 FLuc
Cc1ccc(NC(=O)C2=C(O)c3sccc3N(C)S2(=O)=O)cc1	-3	?	-9%	-20%
Nc1ncc2c(n1)CC(c1ccco1)CC2=O (stereo unspecified)	-8	-4.7%	15%	-2%

(more compounds)
SMILES	GLA inh pH 4.5	Rango complex inh	Rango release inh	miR-21 FLuc
COc1ccc(/C(C)=N/NC(=O)c2nnn(-c3nonc3N)c2-c2ccccc2)cc1	.	2.8%	-1%	-6%
O=C(Nc1cccnc1)c1cccc([N+](=O)[O-])c1	7	0.2%	7%	7%
Cc1cc(-c2cc(C)c(N)cc2C)c(C)cc1N	.	3.5%	0%	.
CCCNC(=O)COC(=O)c1ccccc1OCc1ccc(Cl)cc1	-3	-4.3%	1%	-10%
Cc1ccc(C(=O)NNC(=O)C2CCN(C(=O)OC(C)(C)C)CC2)cc1	.	1.1%	0%	-4%
Cc1cccc2cc3c(N)c(C(=O)Nc4ccc(N5CCOCC5)cc4)sc3nc12	0	6.7%	14%	-7%
O=Cc1cn(CC(=O)N2CCc3ccccc32)c2ccccc12	17	-1.1%	1%	5%
CN1C(=S)N(c2ccccc2)C(=O)/C1=C/c1ccco1	-6	?	-2%	-16%
Cc1nc2cc(-c3ccccc3)ccc2o1	10	-0.1%	-3%	-29%
COc1cc(/C=C/C(=O)OCC(=O)N(C)C2CCS(=O)(=O)C2)ccc1OC(F)F (stereo unspecified)	.	0.2%	-1%	-1%
O=C(NC1CCCC1)c1cc2nc(-c3ccco3)cc(C(F)(F)F)n2n1	.	?	?	0%
Cc1cc(C)c2c(C)c(C(=O)NCc3ccc(S(N)(=O)=O)cc3)oc2c1	-7	-0.4%	5%	-14%
O=C(Cc1ccccc1)NC1c2ccccc2-c2ccccc21	4	-1.9%	0%	-3%
COC(=O)/C(=N/Nc1ccccc1)N1CCCc2ccccc21	0	-0.5%	1%	-15%
COc1ccc(OC)c(NC(=O)CCN2CCN(c3ccccc3F)CC2)c1	-3	-0.2%	0%	0%
CCOc1cc(NC(=O)c2ccco2)c(OCC)cc1NC(=O)c1ccco1	.	-0.8%	16%	-5%
COc1ccc(CCNC(=O)CCSc2nc(-c3ccco3)cc(C(F)(F)F)n2)cc1	1	4.6%	-15%	1%
O=C1COc2ccc(S(=O)(=O)N3CCC(C(=O)NCc4ccccc4)CC3)cc2N1	.	-1.1%	-6%	-2%
C=CCSc1nc2ccccc2n1C(=O)/C=C/c1cc(OC)c(OC)c(OC)c1	-3	7.2%	-1%	?
Cc1ccc2c(c1)N(C(=O)CCC(=O)NCc1cccnc1)CCO2	.	-2.4%	4%	0%
O=C(NC1C/C(=N/O)c2cc3c(cc21)OCO3)C(F)(F)F (stereo unspecified)	12	-3.4%	14%	5%
COc1ccc(CNC(=O)CCC(=O)N2CCN(C(C)=O)CC2)cc1	.	-2.8%	-7%	0%
CC(C)c1onc(C(=O)NCc2ccccc2)c1[N+](=O)[O-]	-1	3.3%	-9%	-1%
N#CC1(NC(=O)CSc2nc3ccc([N+](=O)[O-])cc3s2)CCCCC1	.	-5.0%	29%	.
CCn1c(C)c(Br)c(=O)c(C(=O)OC)c1-c1ccc(Cl)cc1	.	-0.8%	1%	0%
CC(C)(C)NC(=O)/C(=C\c1ccco1)NC(=O)c1ccco1	.	-2.4%	34%	2%
Cn1cc(CN2CCC(N3CCNC(=O)CC3)CC2)c(-c2ccccc2F)n1	4	-1.5%	4%	-1%
O=C(CCNC(=O)C1CCN(S(=O)(=O)c2ccc(F)cc2)CC1)Nc1nccs1	.	-0.9%	0%	3%
O=C1/C(=C/c2ccccc2)SC(=S)N1CC(=O)N1CCCCC1c1cccnc1 (stereo unspecified)	.	-3.1%	-17%	5%
Cc1c(C)c2c(C)nn(-c3ccccc3)c2[nH]c1=O	-6	1.6%	9%	-3%
COC(=O)Cc1cc(=O)[nH]c(/N=C(\N)Nc2ccc(C)cc2C)n1	9	1.8%	2%	-7%
COc1ccccc1OCCNC(=O)CNC(=O)c1ccc2c(c1)OCO2	.	4.4%	6%	.
COc1ccc(/C=C(\C#N)C(=O)N2COCC2(C)C)cc1	.	2.8%	8%	-2%
O=C(c1ccc(-c2ccccc2)cc1)C1CCCN(Cc2ccncc2)C1 (stereo unspecified)	0	0.5%	1%	-42%

Not all compounds are listed. The share of hits here may be higher or lower than overall.
